Screens deposited in PubChem by National Center for Advancing Translational Sciences (NCATS).
TRPV1 PAM – human TRPV1 potentiation | Q8NER1 | TRPV1-expressing cells, Fluo-8 calcium influx, capsaicin EC20 potentiation; host cell line not named in the record; control for the full effect not named in the record | potentiation, % at 8.33 µM | 0.02% of 320,000 active; active means potentiation above 80%; inconclusive means 30% to 80%; inactive means below 30%; further: 0% is about no effect
Target sequence (Q8NER1 whole entry, looked up): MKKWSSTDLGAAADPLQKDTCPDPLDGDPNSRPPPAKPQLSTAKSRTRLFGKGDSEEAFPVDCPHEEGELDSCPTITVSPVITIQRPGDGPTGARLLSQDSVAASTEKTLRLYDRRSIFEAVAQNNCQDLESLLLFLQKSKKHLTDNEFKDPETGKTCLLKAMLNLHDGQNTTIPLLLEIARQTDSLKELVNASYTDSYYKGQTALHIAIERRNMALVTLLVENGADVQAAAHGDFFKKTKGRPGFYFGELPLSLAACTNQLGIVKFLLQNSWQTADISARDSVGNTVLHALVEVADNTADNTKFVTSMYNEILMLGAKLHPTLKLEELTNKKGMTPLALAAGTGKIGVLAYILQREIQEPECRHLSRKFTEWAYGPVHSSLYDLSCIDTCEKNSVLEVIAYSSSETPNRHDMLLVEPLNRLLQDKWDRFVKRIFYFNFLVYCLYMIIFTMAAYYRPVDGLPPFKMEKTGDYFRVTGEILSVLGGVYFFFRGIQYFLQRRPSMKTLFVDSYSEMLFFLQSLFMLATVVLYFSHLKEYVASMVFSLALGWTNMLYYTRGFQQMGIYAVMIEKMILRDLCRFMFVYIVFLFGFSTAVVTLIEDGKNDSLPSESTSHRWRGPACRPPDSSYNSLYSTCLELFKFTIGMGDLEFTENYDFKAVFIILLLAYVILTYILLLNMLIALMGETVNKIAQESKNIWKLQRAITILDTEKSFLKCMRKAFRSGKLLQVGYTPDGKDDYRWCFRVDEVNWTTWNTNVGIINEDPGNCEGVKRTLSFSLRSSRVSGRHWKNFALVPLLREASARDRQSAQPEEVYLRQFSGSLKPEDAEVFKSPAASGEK
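TRPV1-expressing cells were cultured overnight at 35.5C and loaded with Fluo-8 calcium dye for 40 to 90 min at room temperature. After a 10 s baseline, compound was added and calcium influx was read kinetically for 3 min (ex 480/em 520 nm).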
CtBP-E1A inh – inhibitors of CtBP/E1A interaction | AlphaScreen GST-E1A/His-CtBP binding, 1536-well; stronger effect = lower value; control for the full effect not named in the record | activity change, % (test concentration not listed) | 0.49% of 340,000 active; in the data active means activity change below about -65%; inconclusive means about -30% to -65%; inactive means above about -30%; further: on the % scale 0 is the no-effect control and ±100 the full control effect; compound concentration not given in the record
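AlphaScreen with 125 nM GST-E1A and 125 nM His-CtBP (5X stocks) in Tris pH 8.0, 300 mM NaCl, BSA, Tween 20, TCEP. Compounds preincubated 2 h at 37 deg C, then glutathione donor/nickel acceptor beads added for 1 h at 37 deg C in dark.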
Sfp inh – inhibitors of Bacillus subtilis Sfp phosphopantetheinyl transferase. Q9F4F7. Biochemical Sfp PPTase activity, qHTS. Potency, µM, for inactives: max response, negative = inhibition, hits mostly inhibitors. 3.5% of 310,000 active. AID 1490; active means well fitted inhibition curve with a large enough effect; inconclusive means small, poorly fitted or top-dose-only effect, or another doubt; inactive means no such curve, though single readings can be large or run the other way;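 further: the enzyme is Sfp with the accession as filed and its product quenches rhodamine fluorescence; potency means the concentration at half of the fitted maximal effect; 0% = enzyme reaction without inhibitor and -100% = no enzyme wells; top concentration of the series not given in the record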
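With Hepes-Na pH 7.6 buffer containing 10 mM MgCl2, Sfp (15 nM) modified BHQ-2-YbbR (12.5 uM) using rhodamine-CoA (5 uM). Two reads 30 minutes apart at 525/598 nm yielded each well's rate.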
D2 agonist – human D2 receptor agonism in beta-arrestin assay | AID 624465 | P14416 | activation, % (no concentration beside the values) | 0.084% of 360,000 active | DiscoveRx PathHunter D2 beta-arrestin, luminescence, 90 min; 100% = 57 uM dopamine signal; in the data active = activation above about 40%; inconclusive = about 15% to 40%; inactive = below about 15%; further: compound concentration not given in the record; the text of the record calls up to 30% inactive
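DiscoveRx PathHunter D2 beta-arrestin cells (2,100/well) attached overnight, then compound-stimulated 90 min at 37 C in HBSS/10 mM HEPES/0.1% Tween-20 buffer; beta-galactosidase complementation read by luminescence after 1 h at ambient temperature. Dopamine 57 uM final (EC100) as control.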
Six1-Eya2 blk – inhibitors of human Six1/Eya2 interaction. 0.56% of 360,000 active. AID 651725. activity change, % (concentration not given with the values). AlphaScreen GST-Six1/His-Eya2 binding, biochemical; stronger effect = lower value; control for the full effect not named in the record. Q15475+O00167; in the data active = activity change below about -65%; inconclusive = about -30% to -65%; inactive = above about -30%; further: on the % scale 0 is the no-effect control and ±100 the full control effect
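Homogeneous AlphaScreen proximity assay pairing GST-Six1 with His-tagged Eya2 (added as 5X mix: 250 nM and 500 nM) in 50 mM Tris pH 8.0, 300 mM NaCl, 1 mM TCEP. Glutathione donor and nickel acceptor beads; 1 h, 37 °C, dark.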
PINK1 expr mod – PINK1 expression modulation; PINK1 immunofluorescence, high-content cytometry, 24 h; AID 624263; 0.2% of 410,000 active; Potency, µM (titrated, usually from 76.6 µM), inactives show at the highest dose activation (PINK1 increase), hits mostly activators; active = well fitted activation curve with a large enough effect; inconclusive = small, poorly fitted or top-dose-only effect; inactive = flat fitted curve, though single readings scatter; cell line not stated here;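 further: potency means the concentration at half of the fitted maximal effect; % of control where 0% means no effect; nearly all actives have a fitted effect of over 65% in size; a mitochondrial uncoupler was the plate control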
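Compound titrations (5 concentrations, 24 h) on a stable cell line; DMSO and CCCP controls. Endpoint: fixed-cell PINK1 immunofluorescence with mitochondrial, cell and nuclear markers, scanned by microplate cytometer.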
D2 PAM – potentiates the human D2 dopamine receptor allosterically; 0.23% of 360,000 active; DiscoveRx D2 beta-arrestin cells, luminescence, 90 min; 100% = 57 uM dopamine signal; potentiation, % (concentration not given with the values); P14416; active = potentiation of 50% or more; inconclusive = 30% to 50%; inactive = 30% or less;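 further: compound concentration not given in the record; tested on top of an EC20 dose of dopamine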
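PathHunter beta-arrestin assay in DiscoveRx D2 cells. Compounds were added with an EC20 of dopamine (50 nM final) for 90 min at 37 deg C. Luminescence was read 1 h after detection reagent, with 57 uM dopamine as the EC100 control.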
* = called active by the depositor; ? = inconclusive; . = no result given; [ ] = another dose, or the depositor's remark.

Molecule	TRPV1 PAM	CtBP-E1A inh	Sfp inh	D2 agonist	Six1-Eya2 blk	PINK1 expr mod	D2 PAM
CC(=O)N1c2ccc(C)cc2C(c2ccccc2)CC1C (stereo not given)	-17.4	-7.9	7.8%	1.9	-3.2	11.3%	-3.6
CSCCC(NC(=O)c1ccco1)C(=O)Nc1cc(C)ccn1 (stereo not given)	1.0	0.9	.	-0.9	-1.3	2.0%	-21.8
COc1ccccc1-c1nnc(SCC(=O)Nc2ccc3[nH]c(=O)[nH]c3c2)n1N	8.0	-2.3	.	2.1	-4.0	7.1%	-0.9
Cc1cc(C)c(S(=O)(=O)N2CCCC(C(=O)N3CCOCC3)C2)c(C)c1 (stereo not given)	-2.6	1.2	5.1%	2.9	10.4	4.6%	-2.7
COc1ccc(-c2csc(Cc3nnc4n3CCCCC4)n2)cc1	-2.0	-4.0	1.2%	0.6	-1.6	-1.5%	3.9
COC(=O)C(=C/C(C)=C/c1cccnc1)C(=O)OC	2.1	2.0	6.6%	-2.7	6.1	6.3%	2.6
CCN(CC)c1ccc(S(=O)(=O)N2CCOCC2)cc1NC(=O)COC(=O)/C=C/c1ccco1	.	-17.0	.	10.8	-10.1	2.4%	12.5
Cc1noc(C)c1C(=O)NCc1cccs1	-16.5	11.0	0.3%	0.4	6.8	1.2%	20.1
Cn1c(=O)[nH]c(=O)c2c1nc(SCCC(=O)O)n2Cc1cccc(Br)c1	4.6	-12.2	-5.1%	-2.2	-23.7	-0.2%	1.2
O=C(CN1C(=O)NC2(CCCC2)C1=O)Nc1ccc(F)c(F)c1F	-13.4	6.3	2.8%	-1.4	4.6	.	-4.8
O=C(NCC1CCCO1)c1ccc(-c2cccc(C(F)(F)F)c2)o1 (stereo not given)	-4.7	-14.2	6.2%	-0.7	4.4	0.1%	-9.9
Cn1c(SCc2cc(=O)[nH]c3ccccc23)nnc1-c1ccc(Br)cc1	1.8	-2.8	20.9%	0.1	-6.1	0.2%	-9.7

The listing continues.
Molecule	TRPV1 PAM	CtBP-E1A inh	Sfp inh	D2 agonist	Six1-Eya2 blk	PINK1 expr mod	D2 PAM
Cc1ccc2nc(COC(=O)c3ccc(Cl)nc3)cc(=O)n2c1	.	5.8	.	-0.6	3.8	-0.5%	-22.5
Cc1ccc(NC(=O)CCC(=O)NNS(=O)(=O)c2ccc(Cl)cc2)cc1C	?	0.6	20.7%	-4.7	6.0	0.7%	-22.7
CS(=O)(=O)N1CCCC(C(=O)Nc2ccccc2Cl)C1 (stereo not given)	7.4	2.9	3.5%	-2.8	0.2	0.5%	-6.2
Cc1nc2ccccc2n1S(=O)(=O)c1cc(C(=O)O)ccc1Cl	5.2	.	-16.0%	-3.3	2.1	0.8%	-2.3
CCCCc1nc(SCC(=O)N2CCCCC2)c2c(=O)n(C)c(=O)n(C)c2n1	-10.8	2.3	.	-2.8	-2.0	-1.8%	8.9
CCOc1ccccc1N(CC(=O)Nc1ccccc1C(=O)N1CCCC1)S(C)(=O)=O	3.2	7.5	19.1%	1.0	5.3	-0.7%	0.7
CCOc1ccc(NS(=O)(=O)c2cc(C)c(C)cc2C)cc1	8.5	.	-2.2%	5.8	0.9	14.6%	-16.8
CN(C)C1(CNC(=O)c2cccc(S(=O)(=O)Nc3ccc(Br)cc3)c2)CCCCC1	-1.8	-2.0	.	-2.3	-1.7	0.0%	-31.0
Nc1cc(-c2nc3ncccc3o2)ccc1Cl	-31.2	10.9	-19.6%	-4.3	-1.7	-1.3%	-7.9
O=[N+]([O-])c1ccc(Cl)c(CN2CCN(c3ncccn3)CC2)c1	-17.7	-13.0	-10.6%	12.5	0.2	-0.8%	-0.3
CCN(CC)C(=O)CSc1nc(O)cc(=O)n1C	5.5	-0.3	-5.3%	-1.1	1.8	-0.9%[38.3 µM]	-1.0
CCN(C(=O)COC(=O)c1ccccc1Cc1ccccc1)c1c(N)n(Cc2ccccc2)c(=O)[nH]c1=O	.	-17.8	.	-5.7	1.2	-0.5%	-3.2

The results go on:
Molecule	TRPV1 PAM	CtBP-E1A inh	Sfp inh	D2 agonist	Six1-Eya2 blk	PINK1 expr mod	D2 PAM
COc1ccccc1/C=C1\N=C(C(C)(C)C)OC1=O	-18.7	.	-12.3%	-9.1	4.0	1.1%	-10.7
CCOC(=O)C1CCN(C(=O)CCc2c(C)nc3c(-c4ccc(F)cc4)c(C)nn3c2C)CC1	-3.5	0.0	-5.9%	-2.8	28.4	0.0%	-5.4
Cc1cccc(CSCCNC(=O)c2ccc(N(C)S(=O)(=O)c3ccccc3)cc2)c1	-31.5	-5.6	17.8%	-0.5	-3.9	-0.7%	-0.4
Cc1ccc(-c2c[n+](CC(=O)Nc3ccccc3C)c3n2CCC3)cc1	-4.3	-9.4	40.3%[activator]	-2.4	-8.3	0.0%	-28.9
Cc1ccc([N+](=O)[O-])cc1NC(=S)NC(=O)C(C)(C)C	?	-4.0	10.1%	-1.4	-5.5	.	-10.8
Cc1cc(=O)oc2c(C)c(OC(=O)c3ccco3)ccc12	.	6.4	.	-0.4	1.4	-0.3%	1.7
O=c1oc(=S)oc2c1[C@H](c1ccc(Cl)cc1)O[C@H](C1CCCC1)C2	.	5.2	.	.	1.4	18.8%	.
Cc1cc(C)nc(SCCn2c(N3CCCCC3)nc3c2c(=O)n(C)c(=O)n3C)n1	-2.0	2.9	11.6%	-1.7	8.6	-0.8%	1.6
Cc1cccc(N2CCN(Cc3nc(C4CC4)no3)CC2)n1	-7.0	1.5	4.7%	1.0	2.0	0.8%	-3.9
CC(=O)c1ccc(N2CCN(S(=O)(=O)c3c(C(=O)N4CCCC4)c(C)n(C)c3C)CC2)cc1	4.5	.	3.1%	-2.0	6.5	1.2%	-0.8
CCOC(=O)N1CCC(NC(=O)c2ccc(CS(=O)(=O)c3c(Cl)cccc3Cl)o2)CC1	-0.2	0.2	-2.8%	-0.8	-5.1	-1.9%	-0.1
COc1ccc(CCNc2ccc(S(=O)(=O)N3CCN(C)CC3)cc2[N+](=O)[O-])cc1	5.9	?	.	-2.2	-26.2	-3.6%	-4.6

2 records drawn at random from those above, as already listed:
Molecule	TRPV1 PAM	CtBP-E1A inh	Sfp inh	D2 agonist	Six1-Eya2 blk	PINK1 expr mod	D2 PAM
CCCCc1nc(SCC(=O)N2CCCCC2)c2c(=O)n(C)c(=O)n(C)c2n1	-10.8	2.3	.	-2.8	-2.0	-1.8%	8.9
Cc1ccc2nc(COC(=O)c3ccc(Cl)nc3)cc(=O)n2c1	.	5.8	.	-0.6	3.8	-0.5%	-22.5

(list continues)
Molecule	TRPV1 PAM	CtBP-E1A inh	Sfp inh	D2 agonist	Six1-Eya2 blk	PINK1 expr mod	D2 PAM
Cc1c(C(=O)N(C)CC(=O)Nc2cccc(F)c2)oc2c(Cl)cccc12	-2.4	-4.3	.	-4.6	5.2	1.2%	-20.2
CCc1ccc2oc(=O)cc(CN(C)Cc3ccccc3)c2c1	-0.2	14.0	-27.1%	-3.3	11.1	1.3%	-16.1
O=C(NCCc1cn2ccccc2n1)C1CCCCC1	-0.1	7.1	14.0%	-6.5	6.4	0.3%	-12.4
COc1ccc(S(=O)(=O)NCCSCc2cccc(C)c2)cc1Br	-1.5	-5.1	11.1%	-3.7	-7.5	-0.8%	-13.5
CCn1c(SCC(=O)NC2CC2)nc2ccccc21	.	5.2	.	0.3	0.4	0.6%	5.5
COc1cc(OC)c(C(=O)COc2ncnc3ccccc23)c(OC)c1	5.7	0.4	25.5%	-1.8	-0.6	-0.8%	7.3
Cc1cc(Cl)ccc1NC(=O)c1ccc2c(c1)OCO2	-4.4	-12.2	5.8%	9.9	-9.9	-1.6%	-7.6
Cc1ccc(C(=O)Cn2nc(C)c([N+](=O)[O-])c2C)c(C)c1	6.3	8.9	-8.0%	-1.9	-15.2	0.6%	-7.0
O=C(Nc1ccc(Cl)cc1)OCc1cc(-c2ccccc2Cl)on1	-20.3	6.7	-19.4%	-3.4	-1.3	?	-1.1
O=C(Nc1ccccc1)OC1CCC2CC1CCC2OC(=O)Nc1ccccc1 (stereo not given)	20.1	-13.5	37.2%[activator]	-1.0	-1.3	?	-12.5
CNS(=O)(=O)c1cccc(C(=O)OCC(=O)Nc2nc(OC)cc(OC)n2)c1	.	4.5	.	1.2	0.2	4.7%	7.8
CCOc1ccc(C(C(=O)NC2CCCCC2)N(C(=O)c2csnn2)C2CC2)cc1 (stereo not given)	-28.8	22.8	4.6%	1.5	-1.2	1.5%	-0.7

Entries of single compounds as entered above. Order of screens: TRPV1 PAM, CtBP-E1A inh, Sfp inh, D2 agonist, Six1-Eya2 blk, PINK1 expr mod, D2 PAM
CCN(CC)C(=O)CSc1nc(O)cc(=O)n1C is listed as 5.5, -0.3, -5.3%, -1.1, 1.8, -0.9%[38.3 µM], -1.0
COC(=O)C(=C/C(C)=C/c1cccnc1)C(=O)OC is listed as 2.1, 2.0, 6.6%, -2.7, 6.1, 6.3%, 2.6
COc1ccc(CCNc2ccc(S(=O)(=O)N3CCN(C)CC3)cc2[N+](=O)[O-])cc1 is listed as 5.9, ?, ., -2.2, -26.2, -3.6%, -4.6
Nc1cc(-c2nc3ncccc3o2)ccc1Cl is listed as -31.2, 10.9, -19.6%, -4.3, -1.7, -1.3%, -7.9

(more compounds)
Molecule	TRPV1 PAM	CtBP-E1A inh	Sfp inh	D2 agonist	Six1-Eya2 blk	PINK1 expr mod	D2 PAM
COc1ccc(C(=O)Nc2nnc(SCC(=O)NC3CCCC3)s2)c(OC)c1	0.0	4.3	3.0%	-1.9	8.0	4.0%	3.7
COc1cc(CN2CC(=O)N(c3ccc(C)c(Cl)c3)C2=S)cc(OC)c1OC	22.8	-6.7	1.8%	1.1	-1.0	4.2%	4.1
CCOC(=O)[C@@H]1[C@H]2COc3ccc(Br)cc3[C@H]2N2C(=O)N(c3ccc(F)cc3)C(=O)[C@]12C	-12.0	-12.3	18.8%	-5.3	30.6	-0.5%	-3.5
Cc1cc(C)c(S(=O)(=O)N2CCCOC2CNC(=O)C(=O)NCc2cccnc2)c(C)c1 (stereo not given)	-1.7	0.6	9.1%	-3.3	3.5	4.0%	-6.3
Cc1cc2nc(C)n(CCCNC(=O)Nc3ccc(C#N)cc3)c2cc1C	-3.9	-2.8	6.3%	-3.9	-4.4	0.2%	0.8
O=C(C1CCCCC1)N1CCN(c2ccnc3cc(Cl)ccc23)CC1	1.4	0.1	-15.8%	-3.2	-6.5	-2.0%	-4.8
CSc1ncnc2c1cnn2-c1ccc(C)cc1C	-14.3	0.9	0.3%	-2.5	3.4	3.6%	3.0
